# RN4220 kill: growth inhibition of S. aureus RN4220, primary screen, OD600 | 16 h | inhibition, % (no concentration beside the values) | hit rate 0.33% among 330,000 | AID 1259311, 2017;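 active = z-score of -3 or lower and OD600 up to 0.18 on both plates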;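 also: plate controls were untreated cells for no effect and reference antibiotic for full effect; stock transfer was 100 nL into about 80 µL; one replicate is shown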
# Bead autofluor: flagged as autofluorescent in microsphere protease counterscreen; fluorescence intensity (concentration not given with the values); hit rate 3.1% among 360,000; AID 624483; compound autofluorescence counterscreen, microsphere flow cytometry; active compounds read high;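 active = at least 3 SD above the mean of all compounds, about 16000 in these data; inconclusive = too few beads counted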;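 also: 100 nL of 1 mM stock went into each well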
# BJeLR viability: MLPCN primary cell-based screen for lethality selective to Ras in HRASV12 cells. hit rate 0.17% among 300,000. inhibition, % (no concentration beside the values). BJeLR (HRASV12) viability, CellTiter-Glo ATP luminescence, 48 h; reference of the scale not given here;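 active = replicate mean above 50%; inconclusive = above 50% but judged a plate artefact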;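 also: 50 nL library stock added to about 25 µL; numbers are from one replicate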
# Mtb hypoxia rep: PubChem AID 1159583; M. tuberculosis hypoxia-regulated fluorescent reporter, fluorescence; fluorescence inhibition, % (concentration not given with the values); hit rate 0.1% among 300,000;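 active = 35 to 45% if threefold the growth effect, above 45% if 1.5-fold the growth effect; inactive = the rest, general growth blockers included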;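 also: wells of about 50 µL received 100 nL stock; 0% = vehicle wells and 100% = reference inhibitor wells; whole bacteria with a GFP reporter of the hypoxia response; strong numbers were not always called active; many hits fall short of the cut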
# PrP 5UTR inh: inhibition of PrP 5' UTR reporter expression. hit rate 0.35% among 340,000. inhibition, % (test concentration not listed). cell-based PrP 5' UTR mRNA reporter, plate reader;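 active = every replicate at 50% or more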;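 also: 0 = median of the neutral control wells; tested in H4 reporter cells; numbers are from one replicate; inactives centre near -14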
# Sa ugtP lethal: growth inhibition of ugtP-null S. aureus, primary screen, RN4220 ugtP deletion, OD600. hit rate 0.54% among 330,000. 16 h; some inactives read as strong as hits. growth inhibition, % (concentration not given with the values). AID 1259309, 2017;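 active = z-score under -3 and OD600 up to 0.15 on both plates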;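 also: plate controls were untreated wells for no effect and antibiotic for full effect; wells of about 80 µL received 100 nL stock; the first replicate is given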
# Mtb hypoxia rep growth: also measured in Mtb hypoxia rep; calls as there; growth inhibition, %; measured here: M. tuberculosis growth (absorbance);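 0% = vehicle and 100% = reference antibiotic; read after six days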
# Numbers without * were called inactive; ? = inconclusive; / = no result given. Rows were taken by chance; any-hit rate near 4%.
SMILES,RN4220 kill,Bead autofluor,BJeLR viability,Mtb hypoxia rep,Mtb hypoxia rep growth,PrP 5UTR inh,Sa ugtP lethal
COc1cc(/C=C2\SC(=S)N(NC(=O)c3ccc(O)cc3)C2=O)ccc1O,12,4206,2,0,3,-12,11
C[C@H](CO)N1C[C@H](C)[C@@H](CN(C)C(=O)NC2CCCCC2)Oc2ccc(NC(=O)C3CCCCC3)cc2C1=O,-2.8,3117,/,7,10,-3,13
COc1ccccc1NC(=O)C(C)OC(=O)C(C)SCC(=O)Nc1ccc(C)cc1 (stereo not drawn),3.2,/,/,2,2,-19,5
Cc1ccc(NC(=S)N2CCCC2)cc1,4.1,2458,3,0,8,-35,-2
O=C(CSc1ncnc2ccccc12)c1ccco1,2.5,3484,-34,18,4,-53,4
O=C(c1cnn(C(=O)c2ccco2)c1)c1cc(F)ccc1O,5.6,7800,/,5,1,-18,4
Cc1cccc(-n2c(C)cc(C=NNC(=O)c3ccc(CN4CCOCC4)cc3)c2C)c1,0.5,/,/,1,6,/,6
O=C(c1ccc(C(F)(F)F)n(Cc2ccc(Cl)cc2)c1=O)N1CCOCC1,2.6,3667,-1,6,4,-13,-1
Cc1cccc(CNC(=O)C2CCC(=O)N(C3CCCC3)C2)c1 (stereo not drawn),2.5,6634,6,5,3,-20,12
Cc1cccc(NC(=O)/C=C/c2ccc3c(c2)OCO3)n1,2.2,2032,-12,18,-5,-116,2
OC[C@@H]1[C@@H](c2ccccc2)C(c2ccc(F)cc2)=NN1c1ccccc1,-8.0,3582,/,-3,6,-15,-14
CC(=O)Cn1ncc(N2CCOCC2)cc1=O,2.2,4657,-2,5,3,-21,8
CCOc1ccc(S(=O)(=O)Nc2ccc(C(=O)NCCCN3CCOCC3)cc2)cc1,1.7,5011,5,6,-3,-20,5
CCCSC1=N/C(=C/c2ccsc2)C(=O)N1c1ccccc1,1.8,2616,-9,8,7,-18,6
Cc1ccc(C2N(c3ccc(Cl)c(Cl)c3)C(=O)C3CCCN32)o1 (stereo not drawn),-0.1,4007,-5,3,8,-38,2
CCCCCCn1c(NCC)nc2c1c(=O)[nH]c(=O)n2C,2.3,3125,-13,0,8,-4,1
COc1ccccc1C(=O)N(CCC1CCCN1C)c1nc2ccccc2s1 (stereo not drawn),4.2,5570,2,7,1,-18,0
Cc1ccccc1S(=O)(=O)Nc1nc2ccccc2nc1NCCO,22,2450,12,-7,-7,-16,15
CC1(C)NC(=O)N(CC(O)COc2ccc(-c3ccc(C#N)cc3)cc2)C1=O (stereo not drawn),3.0,19940*,5,0,4,-3,-8
Cc1cc(=O)oc2cc(OCC(=O)NCCN3CCOCC3)ccc12,1.2,4673,-9,6,4,-5,5
CC(=O)Nc1c(C)ccc(CNC(=O)COc2ccc(F)cc2)c1C,-0.9,2554,4,14,8,-14,7
O=C(Nc1ccc(N2CCN(C(=O)c3cccs3)CC2)cc1)c1ccco1,0.9,5495,11,-5,0,2,-2
Cc1cccc(NC(=O)CN2C(=O)S/C(=C\c3ccc(-c4cccc(C(=O)O)c4C)o3)C2=O)c1,19,/,-3,5,3,-26,8
COc1cccc(C(=O)N2CCN(C(=O)COc3ccc4ccccc4c3)CC2)c1,-3.3,5745,-6,-15,-1,-10,-1
Cc1oc(=O)c(NC(=O)c2ccc(Cl)cc2)cc1C(=O)c1ccccc1,0.6,?,4,5,0,-35,0
CC(C(O)c1ccccc1)N(C)CCn1cnc2c1c(=O)n(C)c(=O)n2C (stereo not drawn),12,4048,-5,-4,3,-4,6
CC(=O)c1ccc(OCC(=O)NCC2(N3CCCCC3)CCCCC2)cc1,1.6,7409,-8,-1,-1,-7,-3
COc1ccccc1CNS(=O)(=O)c1ccc2c(c1)CC(=O)N2C,3.6,5507,4,4,-5,-28,4
COc1ccc(CNC(=O)[C@@H]2CC=C[C@@H]3CCN(C4CCCCC4)C(=O)[C@@H]32)cc1,/,3688,8,/,/,-5,/
CCC1=NN(C(=O)Cc2ccc([N+](=O)[O-])cc2)C(O)(C(F)(F)F)C1 (stereo not drawn),-1.0,4099,-2,-6,-3,-10,-5
CCOC1=C/C(=C/c2c(N)n3nc(CC(=O)N4CCCC4)sc3nc2=O)C=CC1=O,1.4,5838,2,6,1,-19,-1
Cc1cc(S(=O)(=O)N2CCOCC2)ccc1OCC(=O)N1CCC(C(N)=O)CC1,-0.3,3823,1,4,1,-8,-1
CCOCCn1c(SC)nc2c1c(=O)[nH]c(=O)n2C,2.3,10380,-2,-3,0,-11,2
CCCCNC(=O)c1onc(CSc2cc(C)ccc2C)c1C(=O)O,15,4144,1,-3,7,-41,0
c1ccc(CNC23CC4CC(CC(C4)C2)C3)nc1,4.4,4614,-9,10,3,-2,-2
C1CC(=NN=C2CCSCC2)CCS1,4.6,3013,/,7,8,-27,9
Cc1cc(Cl)c(S(=O)(=O)N2CCSCC2)cc1OCC(N)=O,11,3371,8,/,/,7,-4
C[C@@]12C(=O)N(c3cccc(F)c3)C(=O)N1C1c3ccccc3OCC1C2c1ccccc1 (stereo partly drawn),0.1,/,/,3,8,/,1
O=C(COC(=O)c1ccc(O)cc1)NC(c1ccccc1)c1ccccc1,1.6,3856,/,4,-11,-22,9
CN(CC(=O)Nc1ccc(F)cc1)C(=O)CN1C(=O)NC2(CCCC2)C1=O,2.9,?,/,-2,-3,-14,1
O=C(C=NO)Nc1ccc(F)cc1,9.0,/,/,1,4,/,-4
CC1Cc2ccccc2N1C(=O)c1cc2sccc2n1Cc1ccc(F)cc1 (stereo not drawn),-8.3,5187,6,/,/,-15,3
CS(=O)(=O)N(CC(=O)Nc1ccc(CC#N)cc1)c1ccc(C23CC4CC(CC(C4)C2)C3)cc1,3.5,9232,-2,-6,-12,-46,-9
CCc1ccc(N2C(=O)C3C4CCC(C4=C(C)C)C3C2=O)cc1 (stereo not drawn),/,9260,-3,/,/,-12,/
Cc1cc(C(=O)NC2=NCCS2)c2ccccc2n1,0.4,4146,/,6,-4,-12,4
CCOc1ccc(CNS(=O)(=O)c2ccc(-c3ccc(=O)[nH]n3)o2)cc1OC,5.6,4530,-8,8,2,-3,14
Cc1cc(C)n(-c2nnc(C)n2N=Cc2ccccc2O)n1,5.9,/,/,15,3,/,6
S=C(NCc1ccco1)N1CCC(c2nc3ccccc3o2)CC1,3.5,3385,-1,7,8,-20,-3
CCOC(=O)c1c(C)[nH]c(C)c1C(=O)COC(=O)C1CC(=O)N(CCc2ccccc2)C1 (stereo not drawn),4.9,3835,/,12,9,-10,5
O=C(COC(=O)Cc1ccsc1)NCC1CCCCC1,0.4,4166,8,/,/,-14,-2
CC(C)C(=O)Nc1ccc(NC(=O)c2cccnc2)cn1,8.5,3233,-10,15,10,-9,9
COc1ccc(NC(=O)N2CCCCCC2)c(OC)c1,1.9,4445,3,17,3,-18,3
CCN1CCN(C(=O)c2cc(=O)c3cc(C)ccc3o2)CC1,1.1,5932,-4,1,-14,-8,2
C/C=N/N(c1ccccc1)c1ccccc1,/,4475,-9,/,/,1,/
O=C(NCCc1ccccc1)c1cnc2sccn2c1=O,-0.2,6463,-2,5,6,-47,8
COc1ccc(C[C@H]2CN3C(=NC[C@@H]3C(C)C)N2C[C@H](C)NC(=O)c2ccc(C)c(Br)c2)cc1,/,3751,-2,/,/,-24,/
CCOC(=O)C1=C(C)N=C2SC(C(=O)OC)=CC(=O)N2C1c1ccc(F)cc1 (stereo not drawn),-6.4,8359,-8,9,6,-23,4
O=C(CSc1nnc(Cn2nnc3ccccc32)o1)N(Cc1ccc(F)cc1)c1ccccc1,-1.6,11553,-6,-2,-5,-23,6
Cc1nn(-c2ccc(Cl)c(Cl)c2)c(=O)c2ccccc12,7.2,2918,0,/,/,-66,-5
CCOc1ccccc1NC(=O)Nc1cc(S(=O)(=O)N(C)C)ccc1C,4.4,4060,-2,5,10,-11,1

# (more compounds)
SMILES,RN4220 kill,Bead autofluor,BJeLR viability,Mtb hypoxia rep,Mtb hypoxia rep growth,PrP 5UTR inh,Sa ugtP lethal
CN(C)N1C(N)=C(C#N)C(c2ccc(Br)cc2)C2=C1CCCC2=O (stereo not drawn),3.6,4350,-10,-7,0,-5,4
c1ccc(-c2nnc(-c3ccccc3)nn2)cc1,4.2,/,3,3,10,/,6
C[C@@H]1CC[C@]2(O[C@@H](CCO)C[C@H](O)[C@H]2O)O1,/,3711,-4,/,/,-8,/
CCCNC(=O)Cn1c(=O)/c(=C/c2ccc(-c3ccc([N+](=O)[O-])cc3)o2)s/c1=C\C(=O)C(C)(C)C,5.4,6201,/,5,5,-3,-14
Cc1cc(N)n(-c2ccc(S(=O)(=O)N3CCCC3)cc2[N+](=O)[O-])n1,2.1,4095,-1,11,0,-12,0
CCN(CC)S(=O)(=O)c1ccc2c(c1)c(=O)c(C(=O)NCCc1ccccc1)cn2C,1.4,3758,7,/,/,-7,1
COc1ccc(-c2ccc3c(c2)c(-c2cccs2)c(-c2cc(OC)cc(OC)c2)n3C)cc1,1.5,2833,/,11,11,-26,7
COCC=CC1=CC2=CC(=O)C(C)(OC(=O)c3cnc4ccccc4n3)C(=O)C2=CN1Cc1ccccc1 (stereo not drawn),5.8,/,/,13,9,/,-11
CN(Cc1ccccc1)C(=O)c1ccc2c(c1)S(=O)(=O)N=C1CCCCCN12,3.1,3490,/,7,6,-20,6
O=C(O)CCC(=O)OCc1c(-c2ccccc2)ncc2ccccc12,1.7,2917,/,22,9,-29,4
COc1cccc(-n2nnc3c(=O)n(Cc4ccccc4F)cnc32)c1,1.5,21710*,0,0,-5,6,6
COC(=O)C1CCN(C(=O)COC(=O)c2cccc(NS(=O)(=O)c3ccccc3)c2)CC1,2.0,?,-5,7,4,-12,11
Cc1cc(Nc2nc(Cl)c(Cl)cc2Cl)n(-c2ccccc2)n1,4.7,10346,15,2,-1,-33,-8
O=C(CCN1C(=O)C2C3C=CC(C3)C2C1=O)Nc1ccccc1F (stereo not drawn),3.1,5298,4,/,/,8,-12
O=C(Cn1c(=O)[nH]c2ccccc2c1=O)N1CCN(c2cccc(Cl)c2)CC1,4.9,4293,11,18,3,-8,5

# Retrieved one by one from the list above, 5 records:
SMILES,RN4220 kill,Bead autofluor,BJeLR viability,Mtb hypoxia rep,Mtb hypoxia rep growth,PrP 5UTR inh,Sa ugtP lethal
COC(=O)C1CCN(C(=O)COC(=O)c2cccc(NS(=O)(=O)c3ccccc3)c2)CC1,2.0,?,-5,7,4,-12,11
CCCNC(=O)Cn1c(=O)/c(=C/c2ccc(-c3ccc([N+](=O)[O-])cc3)o2)s/c1=C\C(=O)C(C)(C)C,5.4,6201,/,5,5,-3,-14
Cc1cc(Nc2nc(Cl)c(Cl)cc2Cl)n(-c2ccccc2)n1,4.7,10346,15,2,-1,-33,-8
CN(C)N1C(N)=C(C#N)C(c2ccc(Br)cc2)C2=C1CCCC2=O (stereo not drawn),3.6,4350,-10,-7,0,-5,4
COc1cccc(-n2nnc3c(=O)n(Cc4ccccc4F)cnc32)c1,1.5,21710*,0,0,-5,6,6

# Additional entries follow.
SMILES,RN4220 kill,Bead autofluor,BJeLR viability,Mtb hypoxia rep,Mtb hypoxia rep growth,PrP 5UTR inh,Sa ugtP lethal
COc1ccc(C=C(C#N)C(=O)Nc2cccc([N+](=O)[O-])c2)cc1C(=O)O,2.6,/,/,8,12,/,-6
CC1(C)OC(CC(=O)O)[C@]23COC(C(=O)[C@]4(C)C2CC[C@@]2(C)C(c5ccoc5)OC(=O)C5O[C@]524)C13 (stereo partly drawn),9.0,/,/,4,1,/,6
O=C(COc1ccc(Br)cc1Br)NC(=O)NC1CCCC1,17,4584,15,8,8,-94,0
CN(C)CCOc1ccccc1-c1ccccc1,1.0,9074,0,10,4,-24,4
NC(=NOC(=O)CCC1CCCC1)c1ccc([N+](=O)[O-])cc1,3.7,/,/,4,2,/,2
Nc1nncn1C(=O)CCCOc1ccc(Cl)cc1Cl,1.9,10688,-10,-7,-5,/,1
Cc1ccc(NCC(=O)N/N=C/c2cccc(Oc3ccccc3)c2)cc1,/,7557,7,/,/,-8,/
Cc1ccccc1CNc1nnnn1C,19,4649,-9,9,6,-23,11
Cc1ccc([N+](=O)[O-])cc1N1C(=O)CSC1=NNC(=O)c1cccnc1,-1.3,/,/,13,3,/,4
O=[N+]([O-])c1cccc(S(=O)(=O)Nc2cccc(-c3ccc(N4CCOCC4)nn3)c2)c1,3.4,5842,-5,0,9,-25,0
CCN(CC)S(=O)(=O)c1ccc(NS(=O)(=O)c2ccc(F)cc2)cc1,3.9,2777,-6,5,8,-49,2
O=c1cc(-c2ccccc2Cl)oc2cc(O)cc(O)c12,9.9,4066,10,16,10,-28,3

# From PubChem BioAssay
